2A StopGo = High Throughput Screening for Foot and Mouth Disease Virus Antivirals | human cells with a luciferase reporter of 2A StopGo recoding; control for the full effect not named in the record | Potency, µM (series often up to 57.9 µM), for the others: top-dose signal change, negative = less light | actives 1.2% (n = 410,000) | AID 1159524, 2015; active = well fitted falling curve with a large enough effect; inconclusive = small, poorly fitted or top-dose-only effect; inactive = no such curve, though single readings can be large or run the other way; tested in HEK293T cells; further: on the % scale 0 is the no-effect control and ±100 the full control effect; nearly all actives have a fitted effect of over 45% in size; luciferase light after 4 h
SARS PLP yeast = qHTS of Yeast-based Assay for SARS-CoV PLP; actives 0.19% (n = 330,000); S. cerevisiae expressing SARS-CoV PLpro, growth rescue; control for the full effect not named in the record; Potency, µM (titrated, usually from 32.9 µM), inactives show at the top dose activity, positive = growth rescue; active means well fitted rising curve with a large enough effect; inconclusive means small, poorly fitted or top-dose-only effect; inactive means no such curve, though single readings can be large or run the other way; further: 0% is about no effect; nearly all actives have a fitted effect of over 55% in size; growth read by luminescence after 48 h
RE007 growth inh = qHTS Assay for Inhibitors of the HIV-1 protein Vpr; S. pombe RE007 Vpr strain, BacTiter-Glo ATP luminescence, 24 h; control for the full effect not named in the record; Potency, µM (highest dose often 92.2 µM), for the others: at the highest dose activity change, negative = less growth; actives 0.21% (n = 360,000); active = well fitted falling curve with a large enough effect; inconclusive = small, poorly fitted or top-dose-only effect; inactive = no such curve, though single readings can be large or run the other way;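 further: on the % scale 0 is the no-effect control and ±100 the full control effect; nearly all actives have a fitted effect of over 50% in size; the assay follows cell death caused by Vpr and the record does not say whether a fall means rescue or toxicity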
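Fission yeast RE007 carrying one integrated HIV-1 vpr copy, seeded at OD 0.01 in PMG+AL medium with 23 nL pinned compound. Grown 24 h at 30 degrees; viability read by BacTiter-Glo luminescence after 5 min.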
Active calls of the source: *; ? = inconclusive; & = joins results of further samples; [ ] = another dose, or the depositor's remark. Potency means the concentration at half of the fitted maximal effect.

cpd	Molecule	SARS PLP yeast	2A StopGo	RE007 growth inh
1	Cc1ccc(C2(c3ccccc3)NC(=O)N(CC(=O)NCc3ccccc3)C2=O)cc1C (configuration not stated)	2%	-17%	-7%
2	CC1(NC(=O)Cc2csc(-c3cccc(Cl)c3)n2)CCS(=O)(=O)C1 (configuration not stated)	-2%	20%	-6%
3	C[C@H](CO)N1C[C@H](C)[C@@H](CN(C)S(C)(=O)=O)Oc2ccc(NC(=O)Cn3cnnn3)cc2C1=O	-1%	-20%	28%
4	C#CCOCCOCCOCCNc1nc(N2CCN(C(=O)[C@H](CCCCN)n3cc(CN)nn3)CC2)nc(N2CCN(C(=O)[C@H](CC(N)=O)n3cc(C(N)[C@H](C)CC)nn3)CC2)n1 (some centres not stated)	-21%	-6%	-10%
5	O=C(COC(=O)COc1ccc(Cl)cc1)NC1CCCC1	1%	-16%	3%
6	Cc1noc(C)c1S(=O)(=O)N1CCC(C(=O)O)CC1	-2%	-3%	1%
7	O=C1C=C(c2ccc(Cl)nc2)C[C@@H](c2ccc3c(c2)OCO3)C1	-2%	-8%	3%
8	COc1ccc(C)cc1NC(=O)COC(=O)c1c(C)nn(-c2ccccc2)c1C	4%	?	6%
9	O=C(COC(=O)c1ccc(O)cc1O)Nc1cccc2ccccc12	0%	-4%	1%
10	CC[C@]12c3[nH]c4ccc(Cl)cc4c3CCN1C(=O)[C@@H](CC(=O)NCc1ccc(OC)c(OC)c1)C[C@@H]2C(=O)N1CCN(C(=O)c2ccco2)CC1	-10%	-14%	8%
11	CN(Cc1ccccc1)C(=O)c1[nH]cnc1C(=O)Nc1ccccc1	3%	7%	-27%
12	CC(C)Cn1c(N)c(C(=O)COC(=O)c2ccccc2C(=O)c2ccccc2)c(=O)n(C)c1=O	4%	?	6%
13	COc1ccc(Nc2nc(N)nc(CSC(=S)N3CCCCC3)n2)cc1	-2%	49%[activator]	3%
14	CC1CCN(C(=O)c2nc[nH]c2C(=O)OCCNC(=O)OC(C)(C)C)CC1	0%	0%	12%
15	CC1Nc2ncnc(N3CCc4ccccc4C3)c2N(Cc2ccc(Br)cc2)C1=O (configuration not stated)	0%	0%&0%	-30%&-12%

Copied from the list.
no. 13 | RE007 growth inh = 3%
no. 5 | SARS PLP yeast = 1%

Records 3 through 4 of the list above:
cpd	Molecule	SARS PLP yeast	2A StopGo	RE007 growth inh
3	C[C@H](CO)N1C[C@H](C)[C@@H](CN(C)S(C)(=O)=O)Oc2ccc(NC(=O)Cn3cnnn3)cc2C1=O	-1%	-20%	28%
4	C#CCOCCOCCOCCNc1nc(N2CCN(C(=O)[C@H](CCCCN)n3cc(CN)nn3)CC2)nc(N2CCN(C(=O)[C@H](CC(N)=O)n3cc(C(N)[C@H](C)CC)nn3)CC2)n1 (some centres not stated)	-21%	-6%	-10%

Other results.
cpd	Molecule	SARS PLP yeast	2A StopGo	RE007 growth inh
16	Cc1ccc(NC(=O)COC(=O)CCc2c[nH]c3ccccc23)c(C)c1	-3%	2%	-14%
17	NC(=O)COc1ccc(C(=O)NCC2(N3CCOCC3)CCCCC2)cc1	-1%	2%	1%
18	CC(C)c1ccc(NC(=O)COC(=O)c2ccc(CN3CCCC3=O)cc2)cc1	-9%	9%	-11%
19	c1ccn2cc(-c3ccc4c(c3)OCCO4)nc2c1	-14%	-60%	?
20	CC(c1ccncc1)C(C)c1ccncc1 (configuration not stated)	6%	-2%	-5%
21	CN(CC(=O)Nc1ccccc1C(F)(F)F)C(=O)C1CC1	12%	-17%	9%
22	CCN(Cc1nc2cc(Cl)ccc2c(=O)[nH]1)C(=O)COc1ccccc1Cc1ccccc1	-4%	-11%	-6%
23	O=C1c2cccc3cccc(c23)C(=O)N1CCCSc1ncn[nH]1	-1%	-7%	12%
24	Cc1ccc(NC(=O)COC(=O)c2ccc(S(=O)(=O)NCc3ccco3)cc2)cc1	12%	-8%	12%
25	Cc1ccc(C(NC(=O)c2cccc(S(=O)(=O)N3CCN(C)CC3)c2)c2ccccc2)cc1 (configuration not stated)	-4%	5%	-1%
26	CC(C)N(c1ccccc1)c1ccc(NC(=O)CCl)cc1	1%	40µM*	0%
27	COc1cc(OC)cc(-c2nnc(N(C)C(=O)c3ccncc3)s2)c1	1%	20%	1%
28	CCCNC(=O)C(Cc1ccc(Cl)cc1)NC(=O)c1ccc(C#N)cc1 (configuration not stated)	4%	-3%	2%
29	CC1CN(C(=O)CNC(=O)Cc2cccc3ccccc23)CC(C)O1 (configuration not stated)	-2%	-16%	-7%
30	CC(C)=CCC/C(C)=C/CNC(=O)C[C@H]1C[C@H](C(=O)N2CCCCC2)[C@@]2(C)c3[nH]c4cc(CCC(=O)N(C)C)ccc4c3CCN2C1=O	-18%	0%	1%
31	Cc1cc(NC(=O)CN2C(=O)NC3(CCCCCC3)C2=O)ccc1Br	0%	-11%	-4%
32	CCC(=O)c1ccc(OCC(=O)Nc2ccc(N3CCCCC3)cc2)cc1	-7%	-7%	-4%
33	O=C(COC(=O)c1ccc(Br)o1)Nc1ccc2[nH]c(=O)[nH]c2c1	2%	-11%	2%
34	CC(C)(C)OC(=O)N1CCC(NC(=O)c2nc[nH]c2C(=O)N2CCN(c3ccccc3)CC2)CC1	1%	-1%	-6%
35	C#CCOCCOCCOCCNc1nc(N2CCOCC2)nc(N2CCN(C(=O)CCCCCCCCCCNC(=O)[C@@H]([C@H](C)O)n3cc(C)nn3)CC2)n1	2%	-9%	8%
36	O=C(N/C(=C/C=C/c1ccccc1)C(=O)N1CCOCC1)c1ccccc1Cl	1%	-3%	-14%
37	COc1ccc(C/C(N)=N/OC(=O)c2cccs2)cc1	-17%	16%	-12%
38	CCCn1c(C(=O)c2ccccc2)nc2ccccc21	3%	-15%	-10%
39	O=C(c1ccccc1)c1ccc(C(=O)N2CCN(c3ccccc3Cl)CC2)cc1	-3%	?	-9%
40	O=C(COC(=O)c1ccc2ncsc2c1)Nc1ccccc1Br	-7%	2%	9%
41	Cc1ccc(S(=O)(=O)N2[C@@H](c3ccc(C#N)cc3)C(C(=O)O)=C[C@H]2C(C)(C)C)cc1	-3%	-16%	8%
42	CC(C)(C)[C@H]1COC(=O)[C@H](NC(=O)OCC2c3ccccc3-c3ccccc32)C/C=C\C[C@@H](CC(=O)N(CCO)Cc2ccccc2)C(=O)N1	-2%	-27%	9%
43	CC(=O)C[C@@H](O)CC(=O)[C@H]1OC(=O)CCCCCCc2ccccc21	-4%	-9%	1%
44	CC(=O)c1cccc(S(=O)(=O)N2CCC(C(=O)N(C)Cc3ccc(Cl)s3)CC2)c1	1%	-21%	5%
45	O=C(COC(=O)/C=C/c1cccs1)Nc1ccc(F)cc1	0%	-10%	?

Profiles from above:
`O=C(COC(=O)c1ccc(Br)o1)Nc1ccc2[nH]c(=O)[nH]c2c1` is listed as SARS PLP yeast = 2%; 2A StopGo = -11%; RE007 growth inh = 2%
`O=C(c1ccccc1)c1ccc(C(=O)N2CCN(c3ccccc3Cl)CC2)cc1` is listed as SARS PLP yeast = -3%; 2A StopGo = ?; RE007 growth inh = -9%
`COc1ccc(C/C(N)=N/OC(=O)c2cccs2)cc1` is listed as SARS PLP yeast = -17%; 2A StopGo = 16%; RE007 growth inh = -12%

More compounds follow:
cpd	Molecule	SARS PLP yeast	2A StopGo	RE007 growth inh
46	Cc1ccc(NC(=O)CSc2ncc3ccccn23)cc1C	0%	85%[activator]	-9%
47	COc1ccc(S(=O)(=O)N2CCc3ccccc32)cc1C(=O)NCC(c1ccco1)N1CCCC1 (configuration not stated)	0%	15%	-7%
48	O=C(CN1C(=O)NC(c2ccccc2)(c2ccccc2)C1=O)NCc1cccs1	6%	11%	-5%
49	CC(CC(=O)Nc1cccc(S(=O)(=O)N2CCCCC2)c1)c1ccccc1 (configuration not stated)	-1%	-11%	3%
50	COc1cc(C(=O)NCC(c2ccco2)N2CCCC2)ccc1OCc1ccccc1 (configuration not stated)	-3%	-9%	7%
51	C=CCC[C@H](Cc1ccc(F)cc1)C(=O)OC[C@@H]1CCCN1C(=O)[C@@H](CC=C)CC(=O)NCCO	-1%	-24%	3%
52	CCc1ccccc1Nc1nc(N)nc(COC(=O)C2=COCCO2)n1	-42%	8%	0%
53	CCCCCCOc1ccc(N2C(=O)CC(SC(=NCC)NCC)C2=O)cc1 (configuration not stated)	2%	-5%	10%
54	C[C@@H]1CN([C@H](C)CO)C(=O)c2cccc(NC(=O)NC3CCCCC3)c2O[C@@H]1CN(C)C(=O)Nc1ccc(C(F)(F)F)cc1	5%	-46%	11%
55	CCOC(=O)C1=C(COC(=O)c2sccc2C)NC(=O)NC1C (configuration not stated)	2%	-17%	7%
56	CCN(CC(=O)NCc1ccc(Cl)cc1)S(=O)(=O)c1ccc(NC(C)=O)cc1	7%	-19%	9%
57	CSCC[C@H](N)C(=O)NC[C@H]1O[C@@H](n2cnc3c(N)ncnc32)[C@H](O)[C@@H]1O	19%	-16%	3%
58	C/C(CC(=O)Nc1cc(Cl)ccc1Cl)=N\NC(=O)c1ccccc1Br	-7%	-8%	-14%
59	CCOC(=O)C1=CC[C@H]2c3c(c4ccc(OC)cc4n3C)C(=O)C1N2S(=O)(=O)c1ccc(C)cc1	-1%	15%	-3%
60	COc1ccc(Cl)cc1NC(=O)COC(=O)CNC(=O)C1CCCCC1	3%	-13%	22%

The last 7 compounds of the section above are carried over, then new ones follow.
cpd	Molecule	SARS PLP yeast	2A StopGo	RE007 growth inh
54	C[C@@H]1CN([C@H](C)CO)C(=O)c2cccc(NC(=O)NC3CCCCC3)c2O[C@@H]1CN(C)C(=O)Nc1ccc(C(F)(F)F)cc1	5%	-46%	11%
55	CCOC(=O)C1=C(COC(=O)c2sccc2C)NC(=O)NC1C (configuration not stated)	2%	-17%	7%
56	CCN(CC(=O)NCc1ccc(Cl)cc1)S(=O)(=O)c1ccc(NC(C)=O)cc1	7%	-19%	9%
57	CSCC[C@H](N)C(=O)NC[C@H]1O[C@@H](n2cnc3c(N)ncnc32)[C@H](O)[C@@H]1O	19%	-16%	3%
58	C/C(CC(=O)Nc1cc(Cl)ccc1Cl)=N\NC(=O)c1ccccc1Br	-7%	-8%	-14%
59	CCOC(=O)C1=CC[C@H]2c3c(c4ccc(OC)cc4n3C)C(=O)C1N2S(=O)(=O)c1ccc(C)cc1	-1%	15%	-3%
60	COc1ccc(Cl)cc1NC(=O)COC(=O)CNC(=O)C1CCCCC1	3%	-13%	22%
61	Cc1ccccc1NCC(=O)N/N=C\c1ccc([N+](=O)[O-])s1	1%	-8%	-5%
62	COc1cc(OC)cc(-c2c(-c3cccs3)c3cc(-c4ccc(CN5CCOCC5)cc4)ccc3n2C)c1	1%	7%	5%
63	CCc1c(C2(O)CCCCC2)[nH]c2ncccc12	-6%	-11%	-5%
64	C[C@H](CO)N1C[C@H](C)[C@@H](CN(C)Cc2ccncc2)Oc2c(NS(=O)(=O)c3cn(C)cn3)cccc2C1=O	-3%	11%	7%
65	Cc1cc(N(C)C)nc(Nc2ccccc2)n1	2%	14%	-4%
66	Cc1cccc(NC(=O)Nc2ccc([N+](=O)[O-])cc2)n1	-5%	29%	-20%
67	CCOc1ccc(CCNC(=O)CN2C(=O)NC3(CCCCCC3)C2=O)cc1OCC	-2%	-6%	13%
68	O=C(COC(=O)c1ccc(F)c(S(=O)(=O)N2CCOCC2)c1)c1ccccc1	-1%	16%	4%
69	COC(=O)[C@@]12CCCCN1[C@H](c1ccc(-c3ccc4c(c3)OCO4)c(OC)c1)[C@@H]1C(=O)N(C)C(=O)[C@@H]12	2%	-21%	3%
70	CSc1ncccc1C(=O)OCC(=O)c1[nH]c(C)c(C(C)=O)c1C	-5%	-16%	-8%
71	COc1ccc(OC)c(/C=C/C(=O)OCC(=O)NCc2ccco2)c1	-5%	-14%	6%
72	COCc1ccccc1C1=CC(=O)C[C@H](c2ccc(OC)cc2)C1	5%	-1%	10%
73	O=C(CCN1C(=O)C2CCCCC2C1=O)Nc1cc([N+](=O)[O-])ccc1Cl (configuration not stated)	5%	-4%	-8%
74	COc1ccc(NS(=O)(=O)c2cc(NC(=O)c3ccc(=O)[nH]n3)ccc2N2CCOCC2)cc1	-2%	78%[activator]	12%
75	C/C(CC(=O)NC1CCCCC1)=N\NC(=O)COc1ccc(C)cc1Br	2%	6%	-13%
76	CCOC(=O)[C@H]1[C@H]2COc3ccc(OC)cc3[C@@H]2N2C(=O)c3cc(F)c(F)cc3NC(=O)[C@@]12C	1%	-19%	-6%

Bioassay records from PubChem.

These rows are one share of the data, so the mix of outcomes need not match the whole.
